MgrA DNA FP: alters Staphylococcus aureus MgrA binding to DNA | fluorescence polarization | inhibition, %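 (about 10 µg/mL by stock and volumes)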 | 0.13% of 84,000 active | AID 602314;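 active = above 50% in either of two replicates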;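 note: 0% = protein plus DNA without compound and 100% = DNA alone without protein; higher means less MgrA bound to DNA so lower polarization; one replicate is shown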
Sa helicase inh: blocks Staphylococcus aureus DNA helicase | AID 485395 | 0.05% of 120,000 active | inhibition, %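 (tested at about 80 µM)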 | purified S. aureus helicase, fluorescence unwinding assay; about half of the hits fall short of the stated cut;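 active = both duplicates at 50% or more, or one of them with a favoured structure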;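 note: 0% = mean of negative control wells and 100% = mean of positive control wells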
* hit, by the source's call; / = not tested or not shown. Some of the compounds tested; count on the stated rates, not on these rows.

Second line of a record – MgrA DNA FP, Sa helicase inh
COC(=O)/C(C#N)=C/c1cc(Br)c(OC(C)=O)c(OC)c1
    -1.7, /
CC[C@@]1(C)N[C@H](C(=O)O)CS1
    -2.3, 13
CCCn1c(C2CC(=O)N(Cc3ccccc3)C2)nc2ccccc21 (configuration not stated)
    /, -8
O=C(NCc1cccs1)C1=CC=CN2CCS(=O)(=O)N=C12
    /, -9
C/C(Nc1ccccc1C)=C1/CCOC1=O
    -0.5, /
NC(=O)C1CCCN(S(=O)(=O)c2ccccc2)C1 (configuration not stated)
    2.0, 2
COc1nc(N)nc(C(C)(C)C)n1
    -0.7, /
CC(C)(C)SCCNC(=O)c1ccco1
    0.4, /
CCCSc1nnc(CNC(=O)C23CC4CC(CC(C4)C2)C3)n1CC
    /, -19
COc1ccc(CN(C)c2nc(-c3cccnc3)nc3ccccc23)cc1OC
    /, 7
N#CC(C#N)=C(N)CSc1ccc(Cl)cc1
    -0.4, /
Cc1cc(C(=O)CSc2nnc(NC3CC3)s2)c(C)s1
    /, -2
NC(=O)COC(=O)CCc1nc2ccccc2s1
    /, 2
O=c1[nH]nc(SCc2ncc(C(F)(F)F)cc2Cl)n1-c1ccccc1
    -1.4, /
C=CCn1c(COc2ccc(CC)cc2)nnc1SCC(=O)c1cc(C)n(CCOC)c1C
    /, 17
Cc1onc(-c2c(Cl)cccc2Cl)c1C(O)c1ccc(F)cc1 (configuration not stated)
    -0.4, /
O=C(NCc1ccc(S(=O)(=O)NCCN2CCCC2)s1)c1ccc(Cl)cc1
    -0.6, /
CCCC(=O)Nc1c(O)c2ccccc2[nH]c1=O
    /, 6
O=C(CSc1ccc2nnc(-c3ccccn3)n2n1)c1ccccc1
    1.1, 0
CC(Oc1ccccc1F)C(=O)N/N=C/c1cnn(-c2ccccc2)n1 (configuration not stated)
    /, 0

An excerpt from above in order of their number in Sa helicase inh, rising:
Second line of a record – MgrA DNA FP, Sa helicase inh
CCCSc1nnc(CNC(=O)C23CC4CC(CC(C4)C2)C3)n1CC
    /, -19
CC[C@@]1(C)N[C@H](C(=O)O)CS1
    -2.3, 13
C=CCn1c(COc2ccc(CC)cc2)nnc1SCC(=O)c1cc(C)n(CCOC)c1C
    /, 17

Next section
Second line of a record – MgrA DNA FP, Sa helicase inh
Cc1c(N)c(C)c(N)c(C)c1N
    17, 2
COC(=O)c1cn(CCC#N)nc1-c1ccc2ccccc2c1
    -6.3, 2
C=CCN(CC=C)C(=O)CSc1nnnn1-c1ccc(C)cc1C
    /, -4
O=C1CN(c2ccc(OC(F)(F)F)cc2)C(=O)CN1CC1CC1
    /, 15
COc1ccc(OCCN(C)C(=O)c2cccc3cccnc23)cc1
    /, 18
Cc1csc2nc(NC(=O)c3ccccc3)sc(=O)c12
    -0.8, /
CC(C)CNS(=O)(=O)c1ccc2nc(NC(=O)c3ccccn3)sc2c1
    /, 18
C/C(=N\O)c1cc2ccccc2o1
    -1.6, /
Fc1ccccc1OCCCOc1ccccc1F
    1.5, 4
OCCCNc1ncnc2sc(-c3ccccc3)cc12
    /, 5
O=c1[nH]c(O)c(/C=N/Nc2ccccc2)c(=O)[nH]1
    2.6, 9
O=C(Sc1cccc2cccnc12)c1ccccc1
    7.0, 2
CN(C)c1ccc2c(c1)S(=O)(=O)c1cc(N(C)C)ccc1C2=O
    47, -89
CC(Oc1cccc(Cl)c1)C(=O)N(C)Cc1nc2ccccc2c(=O)[nH]1 (configuration not stated)
    /, 27
O=c1oc(-c2ccc(F)cc2)nc2scc(-c3cccs3)c12
    0.3, -7
O=C(NC(=S)NC1C2CC3CC(C2)CC1C3)c1ccco1 (configuration not stated)
    2.9, 1
CN(C)S(=O)(=O)c1ccc(C(=O)OCc2csc(Nc3ccccc3)n2)cc1
    /, -10
CCOC(=O)c1sc(-c2ccccc2)nc1OCc1c(Cl)cccc1Cl
    -1.3, /
CCOC(=O)c1cc(C(C)(C)C)n(CCCN2CCOCC2)c1C
    -3.7, /
NNC(=O)CNc1c(-c2ccsc2)nc2ccccn12
    1.0, 9
O=C1CCOc2ccc3ccccc3c21
    /, 25
CC1CCCCN1C(=O)c1ccc2ccccc2n1 (configuration not stated)
    /, 1
Cc1cccc(N2CCN(C(=O)C(NS(=O)(=O)c3cccc4nsnc34)C(C)C)CC2C)c1 (configuration not stated)
    -1.9, 18
COc1ccc2cc3cc(C(=O)NCCCN4CCN(C)CC4)sc3nc2c1
    /, 41
CC(Sc1nnc(-c2ccncc2)o1)C(N)=O (configuration not stated)
    -7.4, -2
O=C(Cn1nc(Cc2ccncc2)c2ccccc2c1=O)NCCC1=CCCCC1
    /, 0
Nc1cc2c(cc1Cl)OCO2
    12, 14
Fc1cc(F)c(NC(=S)N2CCOCC2)c(F)c1
    -0.5, /
CC(C)C(C(=O)O)n1c(O)c(C2=c3ccccc3=NC2=O)sc1=S (configuration not stated)
    /, -9
COc1ccccc1CCNS(=O)(=O)c1ccc(C(=O)O)n1C
    -5.2, /
Cc1ccc(/C=C(\C#N)C(=O)NC2CCCCC2C)o1 (configuration not stated)
    /, -6
Cc1ccc(C(=O)OCC(=O)N2CCC(Cc3ccccc3)CC2)s1
    -1.3, 13
N#C/C(=C\c1ccc(C(F)(F)F)cc1)c1c[nH]c2ccccc12
    0.9, /
O=C(COc1ccccc1)c1ccc(O)cc1O
    -0.9, 2
O=C1c2ccccc2C(=O)N1CC(F)(F)F
    -2.0, 19
CNC(=S)N/N=C(\C)Cc1ccc(OC)cc1
    /, 11
Cc1cc(C(=O)CSc2n[nH]c(N)n2)c(C)n1Cc1ccc2c(c1)OCO2
    /, -14
CCOC(=O)c1cnc2c(OC)cccc2c1NC1CCCCC1
    0.9, 16
O=S(=O)(c1csc2ccccc12)N1CCOCC1
    0.1, /
CC(Oc1ccc2c3c(c(=O)oc2c1)CCC3)C(=O)c1ccccc1 (configuration not stated)
    -1.9, 5
CCOc1ccc2nc(/N=C/c3nc(-c4ccc(Br)cc4)oc3O)sc2c1
    0.3, /
O=S1(=O)Cc2ccc(NS(=O)(=O)c3ccc(Br)s3)cc2C1
    2.6, /
CCCc1nc(SC)[nH]c(=O)c1C
    -1.1, /
CC1CCCC(C)N1C(=O)COC(=O)CCC1CCCC1 (configuration not stated)
    -0.3, 0
COC(=O)c1cc2cc(N)ccc2s1
    -2.2, /
O=C(Nc1cccnc1)c1c(O)c2c(n(C3CC3)c1=O)CCCC2
    -2.8, 1
COc1ccc(NC(=O)CN(C)CC(=O)c2c(C)[nH]c3ccccc23)cc1
    /, -3
CC[C@@]1([C@@H]2O[C@@H]([C@H]3O[C@@](O)(CO)[C@H](C)C[C@@H]3C)C[C@@H]2C)CC[C@H]([C@]2(C)CC[C@]3(C[C@H](O)[C@@H](C)[C@@H]([C@@H](C)[C@@H](OC)C(C)C(=O)O)O3)O2)O1 (some centres not stated)
    1.3, /
c1ccc(-n2c(SCc3cc(-c4cccs4)on3)nnc2C2CC2)cc1
    /, -8
CCN(CC)c1ccc(/C=C2\NC(=S)NC2=O)cc1
    /, -41
Cc1ccc(C2CC(=O)C=C(Nc3n[nH]c(C)c3-c3ccccc3)C2)cc1 (configuration not stated)
    -1.0, 7
CC1(C)CC(=O)C2=C(C1)OC(N)=C(C#N)C21C(=O)c2ccccc2C1=O
    /, -9
CN(C)C(=O)c1cn(-c2ccccc2)nc1-c1ccc(OC(F)F)cc1
    /, -8
COC(=O)c1ccccc1NC(=O)c1oc2ccc(F)cc2c1C
    -1.2, 9
N#Cc1cccc(NC(=O)COC(=O)CCC2CCCC2)c1
    -1.1, 1
CCOC(=O)Cc1csc(SCC(=O)c2cc(C)n(-c3ccc(C)cc3)c2C)n1
    /, -12
Oc1ccc(F)c(F)c1
    /, 33
O=C(Cn1cc(C(=O)C2CC2)c2ccccc21)NCc1cccs1
    -1.2, 15
COC(=O)c1ccc(CNC(=O)c2ccc(S(=O)(=O)N(C)C)cc2)cc1
    /, -5
Cc1ccc(S(=O)(=O)Nc2c(O)c3ccccc3oc2=O)c(C)c1
    /, -26

Further results:
Second line of a record – MgrA DNA FP, Sa helicase inh
Cc1[nH]c2ccc(CN3C(=O)c4ccccc4C3=O)cc2c1C
    2.5, 8
Cc1nc2c3c(cccc3n1)C(=O)c1ccccc1-2
    /, -6
Cc1cc2c(cc1C)CSC(c1ccc(N(C)CCC#N)cc1)SC2
    -1.3, /
CCN(CC(=O)Nc1ccccc1OC)C(=O)CC1CCCC1
    /, -9
O=C(O)CC1(CC(=O)Nc2ccc3c(c2)OCCO3)CCCCC1
    /, 15
O=C1CCN=C(N(C(=O)c2ccco2)c2ccc(F)c(Cl)c2)S1
    2.9, /
O=C(CN1CCSCC1)N/N=C/c1ccc(Br)cc1
    -2.5, 4
Cc1cc(C)n(C(=O)C(C)NC(=O)c2ccccc2)n1 (configuration not stated)
    -0.6, -12
COc1nc(NS(=O)(=O)c2ccc(C)cc2)nc(C)c1Br
    0.5, /
Cc1nnc(SCc2cc(=O)[nH]c(=S)[nH]2)s1
    3.6, -7
Cc1ccc(S(=O)(=O)N(CC(=O)NO)Cc2ccccc2)cc1
    /, -13
Cc1cccc(C(C)C)c1NC(=O)CN1CCc2ccccc21
    /, -4
N#CCCn1cc(C=NCc2ccccc2)c(-c2cc3ccccc3o2)n1
    /, 12
CC(C)(C)S(=O)(=O)c1cnc(N2CCCC2)nc1N
    1.1, /
O=S(c1c(F)c(F)c(F)c(F)c1F)c1c(F)c(F)c(F)c(F)c1F
    /, 21
O=C(Nc1ccnn1C1CCCC1)c1ccc2c(c1)CCC2
    /, -8
CCN(CC)c1ncnc2c1[nH]c1ccc(C)cc12
    1.6, 18
O=C(Cc1ccc(S(=O)(=O)N2CCCCC2)s1)N1CCc2ccccc21
    /, -13
Oc1cc(-c2nc3ccccc3o2)c(O)cc1-c1nc2ccccc2o1
    2.7, 1
O=C(CCn1c(=O)oc2ccccc21)Oc1cccc(Cl)c1
    -3.9, /
CN(Cc1ccccc1)C(=O)CC1(CC(=O)O)CCCC1
    /, -3
Nc1cc(C(F)(F)F)ccc1-n1cccn1
    /, -12
COC(=O)c1cccc(CSc2nc3ccccc3[nH]2)c1
    -0.2, -17
CC(C)n1c(=O)c2sccc2n2c(=S)sc(-c3ccccc3)c12
    -1.2, -17
CCOC(=O)Cc1csc(/N=C/NO)n1
    3.5, /
Cc1cc(C)c2c(NC(=O)COc3ccc(Cl)cc3)n[nH]c2n1
    /, 2
CC1(C)Cc2c(c(N3CCOCC3)nc3sc(C(=O)c4ccccc4)c(N)c23)CS1
    -2.8, /
O=c1ccc2nc3ccccc3c(=O)n2[nH]1
    12, -1
Cc1ccccc1-n1nnnc1Sc1nnnn1-c1ccccc1
    /, 9
Fc1ccc(CN2CCc3ccccc3C2)cc1Br
    -4.1, /
COc1ccc(-c2cc(N)nc(N)n2)cc1
    1.6, /
COc1cc(C(=O)NCc2ccccc2)cc(OC)c1OC
    0.4, 5
CC(C)(C)OC(=O)N1CCC(N)(C(=O)O)CC1
    0.3, /
COc1ccc2nc(SCC(=O)Nc3ccnn3C3CCCC3)[nH]c2c1
    /, 11
O=C(CN1C(=O)CSC1=O)c1ccccc1
    -2.5, 5
CCC(C)NC(=S)N1CCN(C)CC1 (configuration not stated)
    -5.3, 3
CCn1nnc2c(N3CCN(c4ccccc4Cl)CC3)ncnc21
    /, 7
CC1CCCCC1NC(=O)Nc1ccccc1F (configuration not stated)
    -1.9, 11
CCOC(=O)c1sc2nc3c(c(-c4ccc(OC)cc4)c2c1N)CCC3
    /, -28
COc1ccc(/C=C/C(=O)O)cc1S(=O)(=O)N1CCc2ccccc2C1
    /, 11
CCOc1ccc(CNC23CN4CN(CN(C4)C2)C3)cc1
    1.2, 14
CC(=O)Nc1ccc(-c2nnc(-c3ccco3)o2)cc1
    -3.3, 5
Cc1onc(-c2c(F)cccc2Cl)c1C(=O)N=S(C)(C)=O
    -1.1, /
Clc1ccc(C2Nc3ccccc3-c3nc(C4CC4)nn32)cc1 (configuration not stated)
    /, -1
O=C(NC1CCCC1)c1ccc(-n2c(-c3ccccc3)cc3c2CCCC3)cc1
    0.5, 5
O=C(O)CSc1nc(-c2ccccc2)cc(=O)[nH]1
    -4.1, 4
O=C(Nc1cccc(-c2nc3ccccc3c(=O)o2)c1)C1CCCCC1
    1.0, 7
COc1ccc(C2CC(=O)C=C(NCCC(C)C)C2)cc1 (configuration not stated)
    1.7, -7
O=C(CC1SC(=NC2CCCC2)NC1=O)NCc1ccc(Cl)cc1 (configuration not stated)
    /, 8
Cc1cc(OCCCCCn2ccnc2)cc(C)c1Cl
    /, 31
O=C1CC(Nc2ccccc2)C(=O)N1c1ccccc1 (configuration not stated)
    -0.4, /
Cc1cccc(NC(=O)CCNS(=O)(=O)c2cccc3nonc23)c1C
    /, 5
Cc1cc(C)c(C#N)c(Sc2ncnc3c2sc2nc(C)cc(C)c23)n1
    -1.4, /
Cc1nc2sc(C(N)=O)c(N)c2c(-c2ccccc2)c1C(=O)Nc1ccccc1
    /, -24
COc1ccc(CCNC(=S)Nc2c(C)cccc2C)cc1OC
    1.3, /
O=C(c1ccc(S(=O)(=O)N2CCCc3ccccc32)s1)N1CCCC1
    /, 6
O=S(=O)(Cc1ccc(Cl)cc1)N1CCc2ccccc2C1
    -2.1, /
OC(CN1CCCCC1)CN(c1ccccc1)c1ccccc1 (configuration not stated)
    0.7, -1
CCOC(=O)c1sc(NC(=O)CN2C(=O)C3CC=CCC3C2=O)nc1C (configuration not stated)
    /, -8
CSCCC1Oc2ccccc2C2CC(c3ccccc3O)=NN12 (configuration not stated)
    /, -18
COc1ccc(Br)cc1C(=O)Nc1ccc(NC(=O)c2ccco2)cc1
    /, -3

High-throughput results as filed in PubChem.
